Source: PubChem
miR-21 FLuc – qHTS Assay for Modulators of miRNAs and/orActivators of miR-21 | Potency, µM (series often up to 38.3 µM), for inactives: top-dose reporter change, positive = more light | AID 2288, 2010 | HeLa miR-21 FLuc reporter, luciferase, 48 h | 340,000 tested, under 10 active; active = well fitted rising curve with a large enough effect; inconclusive = small, poorly fitted or top-dose-only effect; inactive = no such curve, though single readings can be large or run the other way;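 further: % of control where 0% means no effect; miR-21 action dims this reporter so a rising signal means less miR-21 action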
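HeLa miR-21-FLuc reporter line, endogenous miR-21; 2000 cells/well in DMEM/10% FBS; compound titration up to ~40uM final, 48 h, 37 degree Celsius; luciferase detection reagent, 15 min lysis, CCD luminescence.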
Rango-impB inh – qHTS Assay for Inhibitors of Rango (Ran-regulated importin-beta cargo) - Importin beta complex formation; hit rate 0.031% among 340,000; Importin subunit beta-1 (Homo sapiens), Q14974; Rango CFP/YFP FRET sensor + importin beta, 45 min; Potency, µM (series often up to 92.2 µM), inactives show at the top dose inhibition of complex formation; active = rising FRET ratio curve, often small or poorly fitted; inconclusive = mostly compound fluorescence or quenching in the first reads; inactive = flat curves in all reads;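 further: potency means the concentration at half of the fitted maximal effect; 0% = DMSO wells and 100% = buffer wells lacking importin beta; nearly all actives have a fitted effect of over 15% in size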
Target sequence (Q14974 whole entry, looked up): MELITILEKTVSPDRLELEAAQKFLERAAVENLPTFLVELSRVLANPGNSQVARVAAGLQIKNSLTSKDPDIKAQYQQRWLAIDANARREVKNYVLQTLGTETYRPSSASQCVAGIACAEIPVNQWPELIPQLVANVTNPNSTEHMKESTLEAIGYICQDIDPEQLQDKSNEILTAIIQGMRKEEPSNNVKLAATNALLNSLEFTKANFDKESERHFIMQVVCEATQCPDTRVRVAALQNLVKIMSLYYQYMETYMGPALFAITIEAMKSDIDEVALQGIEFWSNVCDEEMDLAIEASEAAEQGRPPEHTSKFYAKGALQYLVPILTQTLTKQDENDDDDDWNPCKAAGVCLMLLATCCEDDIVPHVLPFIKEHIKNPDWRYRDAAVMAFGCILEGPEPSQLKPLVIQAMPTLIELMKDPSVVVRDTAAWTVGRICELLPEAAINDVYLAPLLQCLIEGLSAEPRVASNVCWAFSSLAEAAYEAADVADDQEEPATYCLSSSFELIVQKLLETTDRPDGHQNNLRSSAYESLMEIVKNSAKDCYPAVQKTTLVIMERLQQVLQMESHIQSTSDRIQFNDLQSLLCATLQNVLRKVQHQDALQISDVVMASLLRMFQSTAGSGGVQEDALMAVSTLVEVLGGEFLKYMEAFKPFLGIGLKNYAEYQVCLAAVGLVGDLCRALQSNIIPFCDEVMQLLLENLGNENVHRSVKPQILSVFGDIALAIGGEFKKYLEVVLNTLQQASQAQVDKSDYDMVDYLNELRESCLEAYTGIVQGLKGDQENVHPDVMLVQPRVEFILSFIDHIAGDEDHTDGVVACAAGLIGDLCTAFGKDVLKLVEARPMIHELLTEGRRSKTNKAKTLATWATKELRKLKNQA
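FRET biosensor Rango (snurportin 1 IBB between N-terminal EYFP and C-terminal Cerulean), 50 nM in PBS/1 mM DTT/0.02% Tween-20/0.1% BSA, preincubated 5 min RT with compound; 0.125 microM importin beta added, 45 min RT, CFP/YFP FRET ratio read.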
Rango release inh – qHTS Assay for Inhibitors of RanGTP induced Rango (Ran-regulated importin-beta cargo) - Importin beta complex dissociation; Snurportin-1 (Homo sapiens) + GTP-binding nuclear protein Ran (Homo sapiens) + Importin …; hit rate 0.071% among 340,000; Biochemical FRET Rango-importin beta, RanGTP-induced dissociation; Potency, µM (top dose mostly 46.1 µM), inactives show at the highest dose activity change, negative = inhibition; active means falling FRET ratio curve, often poorly fitted, with flat reads before Ran was added; inconclusive means other falling curves, or compound fluorescence or quenching; inactive means flat or rising ratio curve;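 further: potency means the concentration at half of the fitted maximal effect; % of control where 0% means no effect; nearly all actives have a fitted effect of over 45% in size; -100% = wells without RanGTP and RCC1; the record marks most hits as doubtful in a second field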
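Compounds sat 5 min at room temperature with 0.1 uM Rango biosensor plus 0.25 uM importin beta, then FRET pre-read. RanGTP-RCC1 (0.6 uM Ran, 2mM GTP, 0.2 uM RCC1) added for 45 min, and the CFP/YFP post-read measured blocked complex dissociation.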
GLA inh pH 4.5 – qHTS Assay for Inhibitors of Human alpha-Galactosidase at pH 4.5; 230,000 tested, under 10 active; purified enzyme, 4-MU-alpha-Gal fluorescence, pH 4.5; activity change, negative = inhibition, % at 105 µM; inconclusive = small, poorly fitted or top-dose-only inhibition, or a rising curve; inactive = flat fitted curve, though single readings scatter; no compound was filed as active;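 further: 0% = full activity with enzyme and -100% = basal without enzyme; dose as in the result columns while the protocol names 77 µM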
* = called active by the depositor; ? = inconclusive; nt = not tested or not shown; & = joins results of further samples. A portion of the library (hit frequency here may not be typical).

SMILES | miR-21 FLuc | Rango-impB inh | Rango release inh | GLA inh pH 4.5
CC[C@H](CO)Oc1cc(NCc2ccc(Cl)c(Cl)c2)c2ncn(C(C)C)c2c1 | nt | ? | -10% | nt
Cc1ccc(CSc2nc(-c3ccccc3)c(C#N)c(=O)[nH]2)cc1 | -4% | -0.7% | -12% | nt
CCOC(=O)c1csc(NC(=O)CSc2nnc(C3CC3)n2C)n1 | 1% | -1.1% | -16% | -2
CC1Cc2ccccc2N1C(=O)CSc1nnc(CSc2ncccn2)n1C (configuration not stated) | 0% | -0.8% | 0% | 0
O=C(CNC(=O)Cc1ccccc1)NCC(=O)N1CCCCC1 | -2% | 1.5% | 1% | nt
NC(=O)C1CCN(c2ccc(S(=O)(=O)N3CCC(Cc4ccccc4)CC3)cn2)CC1 | 6% | -1.5% | 7% | -17
Clc1ccc(-c2cc(CSc3ccccc3)on2)cc1 | -53% | -1.2% | 5% | -8
CCOC(=O)c1cccc(NC(=O)Cn2c(CC(=O)NC)nc3ccccc32)c1 | -5% | 0.0% | 6% | -1
Cn1cc(CN2CCCCC2CO)c(-c2ccc(Oc3ccccc3)cc2)n1 (configuration not stated) | -7% | 2.7% | -2% | 1
CCCCNC(=O)C1CCN(S(=O)(=O)c2cnc[nH]2)CC1 | -2% | 4.4% | 1% | -4
COc1ccc(/C(O)=C2/C(=O)C(=O)N(CCCN3CCOCC3)C2c2ccc(C)cc2)cc1 (configuration not stated) | -2% | -0.7% | -9% | nt
CCOc1ccc(NC(=O)CN2C(=O)NC(C)(c3ccc(OC(F)F)cc3)C2=O)cc1 (configuration not stated) | 21% | -1.0% | 0% | nt
CN(Cc1ccco1)C(=O)CSc1nn2c(=O)c(C(C)(C)C)nnc2s1 | nt | -1.0% | -1% | nt
COC(=O)CSc1nccc(C)n1 | 0% | 0.5% | 10% | -5
NS(=O)(=O)c1ccc2nc(-c3ccccc3)c(-c3ccccc3)nc2c1 | -1% | -1.6% | -2% | nt
O=C(Cn1cnc2scc(-c3ccc(Br)cc3)c2c1=O)N1CCOCC1 | -2% | -2.6% | -10% | -1
Cc1oc2cc(O)ccc2c(=O)c1Oc1ccc(F)cc1 | -3% | -3.6% | -10% | nt
O=C(Nc1sc2c(c1C(=O)O)CCC2)c1cccc(Cl)c1 | 9% | ? | -29% | nt
Cc1cc(C)c(-c2c(O)c3cccnc3n(C)c2=O)c(C)c1 | nt | 2.7% | 7% | nt
NC(=O)c1ccc(-c2nnc(Nc3ccc(S(N)(=O)=O)cc3)c3ccccc23)cc1 | 5% | -4.2% | 3% | nt
CCC(Oc1cccc(C)c1)C(=O)Nc1ccccc1C(=O)N1CCOCC1 (configuration not stated) | 0% | 0.6% | -9% | nt
CC(=O)c1cccc(NC(=O)c2ccc(-c3ccccc3[N+](=O)[O-])o2)c1 | -34% | -0.5% | 4% | -9
CCOC(=O)c1c(NC(=O)C2CC2)sc2c1CC(C)(C)OC2 | 1% | 3.9% | -14% | -2
COc1ccc(CCNC(=O)CCCN2C(=O)C(c3ccccc3)Oc3cccnc32)cc1OC (configuration not stated) | 0% | 2.5% | ? | nt
Cc1nc(SC(C(=O)c2ccccc2)c2ccccc2)n[nH]1 (configuration not stated) | -4% | -2.6% | 18% | 9

Some of the entries so far, as labelled records:
COc1ccc(CCNC(=O)CCCN2C(=O)C(c3ccccc3)Oc3cccnc32)cc1OC (configuration not stated)
  miR-21 FLuc = 0% | Rango-impB inh = 2.5% | Rango release inh = ? | GLA inh pH 4.5 = nt
O=C(CNC(=O)Cc1ccccc1)NCC(=O)N1CCCCC1
  miR-21 FLuc = -2% | Rango-impB inh = 1.5% | Rango release inh = 1% | GLA inh pH 4.5 = nt
O=C(Nc1sc2c(c1C(=O)O)CCC2)c1cccc(Cl)c1
  miR-21 FLuc = 9% | Rango-impB inh = ? | Rango release inh = -29% | GLA inh pH 4.5 = nt
CC1Cc2ccccc2N1C(=O)CSc1nnc(CSc2ncccn2)n1C (configuration not stated)
  miR-21 FLuc = 0% | Rango-impB inh = -0.8% | Rango release inh = 0% | GLA inh pH 4.5 = 0

More compounds.
SMILES | miR-21 FLuc | Rango-impB inh | Rango release inh | GLA inh pH 4.5
Cc1ccsc1C(=O)NNC(=O)C1C2C=CC(C2)C1C(=O)O (configuration not stated) | -78% | -1.6% | -5% | 14
C=CCNC(=O)/C(=C\C=C\c1ccccc1)NC(=O)c1ccccc1Cl | 0% | -1.6% | -5% | -1
CC(=O)c1ccc(N(C)C)c2c(N(C)C)cccc12 | -4% | -0.5% | 1% | -11
Cc1ccc(S(=O)(=O)Nc2ccc3c(c2)C(=O)N([C@H](C)CO)C[C@H](C)[C@@H](CN(C)C(=O)Nc2ccc4c(c2)OCO4)O3)cc1 | nt | -2.1% | 15% | nt
CCN(CC)CC(=O)Nc1ccc2c(c1)Nc1ccccc1CC2 | 5% | 5.0% | 1% | -7
Cc1nc(SCC(=O)c2ccc(Cl)cc2)c([N+](=O)[O-])[nH]1 | -10% | 0.0% | -5% | 0
CCN(CC(=O)Nc1c(F)cccc1F)C(=O)CCN1C(=O)C2CCCCC2C1=O (configuration not stated) | nt | -0.5% | 10% | nt
COc1cccc(OCCCCN2CC(C)OC(C)C2)c1 (configuration not stated) | -5% | 3.6% | 11% | -1
Cc1cc(=O)oc2cc(OCC(=O)N3CCCC3)ccc12 | nt | -2.7% | 12% | nt
CC(C)CN1CC(C)C(=O)NC1=S (configuration not stated) | nt | 3.2% | -9% | nt
O=C(NCCCN1CCOCC1)c1ccc2c(c1)N(Cc1ccccc1)C(=O)c1ccccc1S2 | 2%&1% | -3.8% | -18% | nt
O=S(=O)(c1ccccc1)c1ncc(C(F)(F)F)cc1Cl | ? | 0.4% | -9% | -1
CCN(CC)S(=O)(=O)c1cc(NC(=O)COC(=O)C2CCC2)ccc1C | nt | 0.9% | 10% | nt
CCOC(=O)C1CCCN(C(=O)c2ccc3c(=O)n(CCOC)c(=S)[nH]c3c2)C1 (configuration not stated) | 11% | 1.7% | -10% | 4
O=C(O)c1ccn(COc2ccc(Br)cc2)n1 | -3% | -0.9% | -3% | 0
Cc1ccc(CNC(=O)C(=O)NCC2OCCN2S(=O)(=O)c2cccs2)cc1 (configuration not stated) | -13% | 0.0% | 23% | 10
Cc1[nH]c(=O)[nH]c(=O)c1S(=O)(=O)N1CCCC(C(=O)N2CCC(Cc3ccccc3)CC2)C1 (configuration not stated) | -8% | -1.5% | 2% | 3
CC(C)n1c(C(=O)OCC(=O)NCc2ccc3c(c2)OCO3)cc2occc21 | 0% | ? | -4% | -8
COc1ccc(CNC(=O)C2CC(C)=C(C)CC2C(=O)O)cc1OC (configuration not stated) | -1% | 0.0% | 15% | nt
Cc1ccc(-c2cc(N)n3nc(-c4ccc(C)cc4)cc3n2)cc1 | -6%&-5% | 7.1% | -5% | 1
O=C(O)C1=CCNCC1 | nt | 3.7% | 20% | -1&9&-4
COc1cc(C(=O)NCC(=O)N2CC=C(c3ccccc3)CC2)cc(OC)c1OC | nt | -0.3% | -4% | nt
COc1ccc(NS(=O)(=O)c2cccc(C(=O)NNC(=O)c3ccccc3OC)c2)cc1 | nt | 0.5% | 26% | nt
N#Cc1c(-c2ccco2)nc(SCc2ccc(F)cc2)[nH]c1=O | 1% | 0.0% | 0% | 9
COc1ccc(C(=O)Nc2ccccc2C(=O)Nc2cc(C)ccn2)cc1 | -19% | 3.4% | -17% | nt

New compounds follow.
SMILES | miR-21 FLuc | Rango-impB inh | Rango release inh | GLA inh pH 4.5
Cc1nn(Cc2ccccc2)c(C)c1C(=O)N1CCN(CC(=O)Nc2ccccc2Cl)CC1 | nt | -1.5% | 13% | nt
CCOc1cccc2sc(N(CCN(C)C)C(=O)/C=C/c3cccs3)nc12 | 3% | -1.5% | 30% | nt
O=C(C1=C(O)C(=O)N(Cc2ccco2)C1c1cccs1)c1cccs1 (configuration not stated) | -3% | -4.7% | -9% | -2
CCOc1cccc2sc(=NC(=O)c3ccco3)n(CC(=O)OC)c12 | 20% | 5.9% | 7% | 4
O=C(Nc1ccccc1)NC1(C(=O)NCc2cccs2)CCCCC1 | -4% | 9.6% | -16% | 6
CC(=O)N1N=C(c2ccc(Br)cc2)OC12CCCC2 | -1% | 3.0% | -8% | -3
CCOC(=O)N1CCC(NC(=O)c2cc(S(=O)(=O)N3CCOCC3)ccc2F)CC1 | -5% | 0.7% | 2% | 0
CC(C)C(NC(=O)c1ccc(C(C)(C)C)cc1)C(=O)NCc1ccccn1 (configuration not stated) | nt | -1.5% | 6% | nt
Cn1c(SCc2nc3ccccc3n2CCO)nc2ccccc21 | 2% | -1.2% | -11% | 5
Nn1c(SCc2ccccc2F)nnc1-c1ccccn1 | -50% | 0.4% | 0% | -4
OC1(C#CCCN2CCCCC2)c2ccccc2-c2ccccc21 | -3% | 3.3% | -3% | -4
O=C(NC(=O)c1ccccc1F)Nc1nc(-c2cccs2)cc(C(F)(F)F)n1 | -19% | 1.4% | 21% | 1
O=c1c(-c2ccnn2-c2cccc(Cl)c2)cnc2n1CCS2 | -6% | -4.6% | 2% | 0
Cc1cccc(-c2nc(Nc3cccc(O)c3)c3ccccc3n2)c1 | 7% | -0.1% | 1% | nt
COc1ccc(NC(=O)CN2CCC3(O)CCCCC3C2c2ccccc2OC)cc1 (configuration not stated) | -7% | nt | nt | 5
Cn1c(=O)n(C)c2cc(NC(=O)CCc3ccccc3)c(Br)cc21 | -4% | 4.8% | 18% | nt
COCC(=O)Nc1nnc(SCC(=O)N2CCCCC2)s1 | -1% | -0.1% | -19% | nt
O=C(NCc1ccc2c(c1)OCO2)c1sccc1Br | -41% | 2.0% | 5% | -1
CCCCCn1c(=O)[nH]c2cc(C(=O)N3CCN(Cc4ccc5c(c4)OCO5)CC3)ccc2c1=O | 25% | -4.6% | -12% | 5
CCCN1C(=O)c2ccccc2NC1c1ccc(OC)cc1O (configuration not stated) | 20% | 6.0% | -5% | -3
O=c1[nH]c(/C=C/c2ccccc2Cl)nc2ccccc12 | -72% | 0.0% | -8% | nt
O=C(NCc1ccco1)c1ccc(Cl)s1 | -4% | -3.3% | -16% | 4
Cc1cc(C(=O)N2CCN(Cc3ccccc3)CC2)on1 | -6% | 3.6% | -22% | -3
COc1ccc([C@H]2CC(=O)C=C(c3ccc4c(c3)OCCO4)C2)cc1 | nt | 1.6% | -2% | nt
N#CC1=C2SCN(c3ccc(F)cc3)CN2C(=O)CC1c1cccc(F)c1 (configuration not stated) | -2% | ? | 2% | -6

Next section:
SMILES | miR-21 FLuc | Rango-impB inh | Rango release inh | GLA inh pH 4.5
CN(c1ccccc1)S(=O)(=O)c1ccc(Cl)c(C(=O)OCC(=O)NC2CCS(=O)(=O)C2)c1 (configuration not stated) | -3% | 3.7% | 4% | 5
Cn1c(SCC(=O)N/N=C/C=C\c2ccco2)nc2ccccc21 | -14% | ? | -17% | -2
O=C(OCc1cn(-c2ccc(Cl)cc2)nn1)c1ccccc1 | -15% | -3.4% | 5% | -12
CC(C)c1ccc(Nc2c([N+](=O)[O-])c(=O)n(C)c3ccccc23)cc1 | 11% | 4.4% | -4% | 2
CC(CCc1ccccc1)NC(=O)CSc1cccc[n+]1[O-] (configuration not stated) | -1% | 1.2% | -2% | -14
c1cc2c(cc1C1=NNC(=NC3CC3)SC1)OCCO2 | ? | 0.9% | -10% | ?
CCC(C)[C@H](NC(=O)N1CCC(C)CC1)C(=O)OC (some centres not stated) | 0% | 0.8% | -12% | -2
COc1cccc(NC(=O)c2ccccc2OCc2c(C)noc2C)c1 | nt | -4.3% | 38% | nt
COc1ccc(/C=C(\NC(=O)c2ccc(OC)c(OC)c2)C(=O)NCCc2c[nH]c3ccccc23)cc1 | 9% | 3.3% | -10% | -5
CCOc1ccc2cc(C#N)c(SCC(=O)NC(C)CC)nc2c1 (configuration not stated) | 10% | nt | nt | -5
Cc1ccc(CNc2ccc(N3CCN(C)CC3=O)cc2)cc1 | nt | 4.0% | 8% | nt
